Screens: PubChem, National Center for Advancing Translational Sciences (NCATS)
Six1-Eya2 blk – blocks human Six1 binding to Eya2; Q15475+O00167; AlphaScreen GST-Six1/His-Eya2 binding, biochemical; stronger effect = lower value; control for the full effect not named in the record; activity change, % (no concentration beside the values); hit rate 0.56% among 360,000; in the data active = activity change below about -65%; inconclusive = about -30% to -65%; inactive = above about -30%; note: % is set by controls: 0 for no effect and ±100 for the full control effect; compound concentration not given in the record
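Six1/Eya2 binding was read as AlphaScreen signal after compounds were pinned into GST-Six1 plus His-tagged Eya2 (5X stock 250/500 nM) in pH 8.0 Tris/NaCl/TCEP buffer, beads added, then incubated 1 h, 37 C, dark.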
D2 PAM – human D2 receptor positive allosteric modulation; potentiation, % (no concentration beside the values); hit rate 0.23% among 360,000; DiscoveRx D2 beta-arrestin cells, luminescence, 90 min; 100% = 57 uM dopamine signal; P14416; active = potentiation of 50% or more; inconclusive = 30% to 50%; inactive = 30% or less;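 note: compound concentration not given in the record; tested on top of an EC20 dose of dopamine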
Target sequence (P14416 whole entry, looked up): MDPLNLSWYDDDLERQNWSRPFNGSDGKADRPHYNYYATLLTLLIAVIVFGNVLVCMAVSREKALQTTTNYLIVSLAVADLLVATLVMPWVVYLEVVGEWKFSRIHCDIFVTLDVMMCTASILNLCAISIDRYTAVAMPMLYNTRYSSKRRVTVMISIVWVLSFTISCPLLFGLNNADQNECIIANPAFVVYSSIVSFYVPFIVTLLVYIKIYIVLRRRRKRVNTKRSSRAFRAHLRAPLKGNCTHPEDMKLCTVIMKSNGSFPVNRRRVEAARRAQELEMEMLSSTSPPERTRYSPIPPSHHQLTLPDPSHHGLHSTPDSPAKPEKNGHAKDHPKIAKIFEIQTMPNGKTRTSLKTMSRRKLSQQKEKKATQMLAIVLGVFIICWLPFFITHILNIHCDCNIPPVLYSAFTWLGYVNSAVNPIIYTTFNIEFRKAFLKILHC
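D2 cells co-treated with compound plus 50 nM dopamine (EC20) for 90 min at 37 deg C to detect potentiation. Beta-arrestin recruitment was read as enzyme-fragment luminescence after 1 h at ambient temperature. Full response was set by 57 uM dopamine.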
CtBP-E1A blk – CtBP/E1A binding inhibition; AlphaScreen GST-E1A/His-CtBP binding, 1536-well; stronger effect = lower value; control for the full effect not named in the record; activity change, % (concentration not given with the values); hit rate 0.49% among 340,000; in the data active means activity change below about -65%; inconclusive means about -30% to -65%; inactive means above about -30%; note: % is set by controls: 0 for no effect and ±100 for the full control effect
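Protein mix (5X: 125 nM each GST-E1A, His-CtBP) was incubated with pinned compound 2 h at 37 deg C in dark, in 50 mM Tris pH 8.0 buffer with 300 mM NaCl. Glutathione donor and nickel acceptor beads followed; AlphaScreen signal read after 1 h.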
TRPV1 potentiator – human TRPV1 potentiation; Q8NER1; TRPV1-expressing cells, Fluo-8 calcium influx, capsaicin EC20 potentiation; host cell line not named in the record; control for the full effect not named in the record; potentiation, % at 8.33 µM; hit rate 0.02% among 320,000; AID 540277; active means potentiation above 80%; inconclusive means 30% to 80%; inactive means below 30%; note: 0% is about no effect
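Fluo-8 calcium influx in TRPV1-expressing cells, kinetic read (ex 480/em 520 nm). Compound added and read 3 min for agonist activity, followed by capsaicin at EC20 final and 2 min further read for enhancement.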
Sfp PPTase inh – blocks B. subtilis Sfp PPTase activity. Q9F4F7. Biochemical Sfp PPTase activity, qHTS. Potency, µM, for inactives: max response, negative = inhibition, usual class: inhibitors. hit rate 3.5% among 310,000. AID 1490; active = well fitted inhibition curve with a large enough effect; inconclusive = small, poorly fitted or top-dose-only effect, or another doubt; inactive = no such curve, though single readings can be large or run the other way;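 note: the enzyme is Sfp with the accession as filed and its product quenches rhodamine fluorescence; potency is the fitted concentration of half-maximal effect; 0% = enzyme reaction without inhibitor and -100% = no enzyme wells; top concentration of the series not given in the record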
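With Hepes-Na pH 7.6 buffer containing 10 mM MgCl2, Sfp (15 nM) modified BHQ-2-YbbR (12.5 uM) using rhodamine-CoA (5 uM). Two reads 30 minutes apart at 525/598 nm yielded each well's rate.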
PINK1 expr mod – modulators of PINK1 expression. PINK1 immunofluorescence, high-content cytometry, 24 h. Potency, µM (titrated, usually from 76.6 µM), for the others: at the highest dose activation (PINK1 increase), hits mostly activators. hit rate 0.2% among 410,000; active = well fitted activation curve with a large enough effect; inconclusive = small, poorly fitted or top-dose-only effect; inactive = flat fitted curve, though single readings scatter; cell line not stated here;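 note: potency is the fitted concentration of half-maximal effect; % of control where 0% means no effect; nearly all actives have a fitted effect of over 65% in size; a mitochondrial uncoupler was the plate control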
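Decision-based qHTS: stable cells, 24 h exposure to five compound concentrations, CCCP as control. Fixed cells stained for PINK1 plus nuclear, mitochondrial and cell markers, cytometer read.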
D2 ag – human D2 receptor agonism in beta-arrestin assay | P14416 | DiscoveRx PathHunter D2 beta-arrestin, luminescence, 90 min; 100% = 57 uM dopamine signal | activation, % (no concentration beside the values) | hit rate 0.084% among 360,000 | AID 624465; in the data active = activation above about 40%; inconclusive = about 15% to 40%; inactive = below about 15%; note: compound concentration not given in the record; the text of the record calls up to 30% inactive
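Agonist mode: compounds alone added to overnight-plated D2 PathHunter cells for 90 min at 37 C, with 57 uM final dopamine (EC100) defining full response. Beta-arrestin recruitment detected by chemiluminescent reagent, read after 1 h at ambient temperature.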
* marks the source's active call; other numbers are inactive results; ? = inconclusive; nt = no result given; & = joins results of further samples; [ ] = another dose, or the depositor's remark.

Order of values – Six1-Eya2 blk, D2 PAM, CtBP-E1A blk, TRPV1 potentiator, Sfp PPTase inh, PINK1 expr mod, D2 ag
CCOC(=O)N1CCN(C(=O)c2ccc(S(=O)(=O)Nc3ccc(C)cc3)cc2)CC1
    4.9, -6.6, -12.0, nt, nt, -1.2%, 4.6
Cc1cccc(NC(=S)N=Nc2c(O)n(C)c3ccc(S(=O)(=O)N4CCOCC4)cc23)c1
    -7.2, 11.3, 1.6, 3.1, -7.3%, -0.9%, 8.6
CCc1ccc(/C=N/n2c(COc3ccccc3)n[nH]c2=S)cc1
    -1.4, -12.7, -2.8, -12.6, -29.9%, 3.4%, -10.8
C[C@@H]1CN([C@H](C)CO)C(=O)c2cc(Br)cnc2O[C@H]1CN(C)C(=O)CC1CC1
    6.1, nt, 3.6, nt, nt, -0.9%, 0.1
CS(=O)(=O)NCc1ccc(C(=O)O)cc1
    5.9, -4.0, nt, -4.7, 8.9%, 1.6%, 1.4
O=C(Nc1ccncc1)c1ccc(F)cc1
    4.6, -5.8, 8.1, -1.4, 7.5%, 1.7%, -4.7
CCC(NC(=O)c1cc(COc2ccc(F)c(F)c2)on1)c1ccncc1 (stereo not given)
    1.1, -22.0, 7.2, -8.5, 10.9%, -0.4%, 2.6
COc1nc(N/N=C/c2ccccc2F)nc(N2CCCCC2)n1
    1.5, -8.9, 4.9, -29.8, 12.4%, 5.8%[38.3 µM], -0.9
CCOC(=O)CNC(=O)c1cccs1
    -1.5, -8.0, 5.1, -6.1, 15.4%, -0.9%, -0.3
O=C(Nc1c(Cl)cccc1Cl)c1ccc(-c2ccccc2)cc1
    1.3, 10.3, -6.6, 12.0, -0.5%, nt, 0.3
COc1cc2c(C(F)(F)F)c(-c3ccsc3)oc(=O)c2cc1OC
    2.8, 4.1, 15.2, nt, nt, -1.2%, 2.9
Cc1sc(NC(=O)CN(Cc2ccc(F)cc2)C(=O)C(C)C)c(C(N)=O)c1C
    4.0, 10.5, 9.0, -10.7, -1.6%, nt, 1.1
COc1cc(NS(=O)(=O)c2ccc(NS(=O)(=O)c3ccc(C)cc3)cc2)nc(OC)n1
    1.1, -9.7, 2.2, 5.9, 13.0%, 1.2%, -0.4
CCOC(=O)C(C)Oc1cccc2c(=O)n(CC(=O)N3CCCc4ccccc43)ccc12 (stereo not given)
    4.8, -2.5, -15.6, ?, 6.8%, -0.6%, -6.1
COc1ccccc1C(=O)NC(C)c1nc2ccccc2[nH]1 (stereo not given)
    3.3, -9.2, 6.7, 5.9, 21.3%, 0.5%, -0.1
COC(=O)c1ccc(CSc2nnc3c(n2)[nH]c2ccccc23)cc1
    1.1, 3.1, 12.5, 7.7, 7.5%, 3.4%, -1.7
CC(C)(C)n1nnnc1C(c1cccs1)N1CCN(C(=O)c2ccco2)CC1 (stereo not given)
    -3.8, -32.5, -1.9, -3.5, 9.8%, 3.4%, -3.4
COc1cc(-c2nnc(NC(=O)CCS(=O)(=O)c3ccccc3)o2)cc(OC)c1OC
    ?, -4.1, 5.1, 9.0, nt, 5.5%, -2.6
Cn1c(=O)[nH]c(=O)c2c1nc(N1CCCC1)n2CCO
    3.0, -3.0, 2.5, 19.1, 32.9%[activator], 0.8%, -0.5
CN(CCc1ccccn1)C1CC(=O)N(c2ccc(Cl)cc2)C1=O (stereo not given)
    4.1, -4.9, 10.0, -3.7, -17.1%, 4.9%, -3.0
Cn1cnnc1SCC(=O)Nc1ccc2c(c1)CCC2
    3.9, -1.4, 6.5, 6.6, 2.4%, nt, -1.8
COc1ccccc1NC(=O)CCS(=O)(=O)c1ccc2c(c1)NC(=O)C(C)S2 (stereo not given)
    0.0, 0.2, nt, -1.4, 16.8%, -0.1%, -0.9
C=CCN(CC=C)S(=O)(=O)c1ccc2nsnc2c1
    -0.1, -6.9, -19.7, -11.0, 6.4%, 10.0%[38.3 µM], -1.7
CCC(=O)N1CCN=C1SCc1cccc(F)c1
    5.6, -12.6, nt, -19.1, 15.3%, 1.5%, -27.0
CCc1nc2ccc(C(=O)NCCN3CCNC3=O)cn2c1N(CC)CCOC
    1.1, -13.8, 4.5, nt, nt, 0.8%, -4.6
CCC/C(=N\NC(=O)c1ccc(CSc2nncn2C)cc1)c1ccccc1
    -0.1, -11.9, -18.9, 3.4, -10.4%, -1.6%, -0.8
OC(C#CCN1CCCCCC1)(c1ccccc1)c1cccnc1 (stereo not given)
    3.4, -28.1, -0.4, nt, -16.2%, -0.8%, -0.1
[O-]c1n[n+](-c2ccc(Cl)cc2Cl)cc2ccccc12
    -8.6, -0.3, -5.5, 21.8, -11.8%, -0.9%, -5.0
COC(=O)c1ccc(NC(=O)COC(=O)c2cccc3c(=O)c(C)c(-c4ccccc4)oc23)cc1
    4.4, 1.0, 0.5, 9.4, 2.2%, 1.7%, -0.6
CCOc1cc(Br)cc(C(c2c(C(=O)O)[nH]c3ccccc23)c2c(C(=O)O)[nH]c3ccccc23)c1O
    -7.7, -1.5, 0.5, -5.1, 32.8%[activator], 22.0%, -3.7
O=C1OCc2cc(NC(=O)C3CCCCC3)ccc21
    2.2, 14.6, 3.7, -28.5, 8.5%, 2.3%, -1.8
COc1ccc(C(C(=O)NC2CCCC2)N(CCN(C)C)C(=O)c2snc(C(N)=O)c2N)cc1 (stereo not given)
    -0.7, 1.2, -1.9, -0.4, 19.6%, 1.0%[38.3 µM], -0.7
C=CCSc1nnc(-c2ccncc2)n1-c1ccc(OCC)cc1
    -5.8, 3.6, -6.3, 1.4, 9.0%, nt, -2.1
N=c1sccn1CC(=O)Nc1ccccc1Sc1ccccc1
    -5.6, -11.4, -0.2, -4.4, 1.3%, -0.5%, -5.0
Cc1ccc(NC(=O)/C(C#N)=C/c2ccc(Sc3nc(C)cc(C)n3)o2)cc1
    -1.4, -3.8, 8.2, -1.9, -5.0%, ?, 0.3
O=C(C1CCC(CNc2nc(=S)[nH]c3ccccc23)CC1)N1CCN(c2ccccn2)CC1 (stereo not given)
    -9.7, -7.5, -17.9, 4.8, 4.3%, 6.8%[38.3 µM], 0.6
COc1cc(CN2CCC(C(=O)NC3CCCC3)CC2)cc(Br)c1O
    1.0, -8.9, -0.3, 16.6, -26.9%, 3.8%[38.3 µM], -3.6
CN(CCOc1ccc(Br)cc1)CC(O)COc1ccc(C#N)cc1 (stereo not given)
    21.0, -25.6, 0.0, -14.6, 13.6%, 1.0%, -4.7
O=C(CN1C(=O)c2cccc3cccc1c23)N1CCN(c2ccccc2)CC1
    -2.5, -4.2, 0.4, 8.6, 14.3%, 3.2%, -0.7
Cc1cccc(Cn2c(SCCN3CCOCC3)nc3c2c(=O)n(C)c(=O)n3C)c1
    0.8, -4.3, 6.6, -12.7, 12.3%, 5.1%, 0.4
CC(C)(C)c1ccc(-n2ncc3c2CCCC3NC(=O)CN2CCCCC2=O)cc1 (stereo not given)
    5.4, -8.1, 9.6, 0.7, 8.2%, 0.5%, 1.1
CN(C(=O)CCS(=O)(=O)c1cc2c(cc1Cl)NC(=O)CO2)C1CCCCC1
    2.7, 0.2, -4.9, -40.9, 3.4%, 0.9%&0.4%, -3.3
CCn1c(SCC(=O)N/N=C/c2c[nH]c3ccccc23)nnc1-c1ccc(C)cc1
    -11.4, -26.4, nt, 14.4, -5.0%, 0.1%, -1.7
CN(C)c1ccc(C=C2C(=O)OC3(CCCC3)OC2=O)cc1
    13.2, -4.6, 4.7, 2.0, -11.8%, -0.1%, -2.8
CCOC(=O)N1C(=O)[C@@](c2ccc(Cl)cc2)(C(C)C)N1C(=O)OCC
    -5.4, -48.3, 1.6, -9.6, 8.9%, 1.0%, -1.4
O=C(Oc1ccc2ccccc2c1Cl)N1CCCCCC1
    30.3, -10.4, 54.4, -16.4, 0.6%, 14.7%, -4.5
Cc1coc2c1c(C)cc1oc(=O)c(CC(=O)N[C@@H](CC(C)C)C(=O)O)c(C)c12
    5.9, -12.7, -25.8, -13.6, 1.9%, 0.0%, -1.4
CCOC(=O)c1nc2nc(-c3cccs3)cc(C(F)(F)F)n2n1
    -0.5, -8.4, -11.0, -5.4, -11.8%, 7.1%, 3.0
O=C(CSC1=NNC(c2ccccn2)S1)Nc1ccccc1 (stereo not given)
    -93.9*, -1.7, -94.0*, -17.8, -13.9%, 0.7%, 0.3
Cc1ccc(CCC(=O)Nc2ncc(Cc3cc(Cl)ccc3Cl)s2)o1
    2.0, -3.8, 12.7, 4.2, -12.0%, -1.8%, 5.4

Later entries
Order of values – Six1-Eya2 blk, D2 PAM, CtBP-E1A blk, TRPV1 potentiator, Sfp PPTase inh, PINK1 expr mod, D2 ag
CCc1nc(NCC(C)C)c(C#N)c2c1COC(C)(C)C2
    -0.4, -25.1, 0.2, -6.5, 8.4%, -0.9%, -2.8
c1ccc2c(C(c3nnnn3-c3ccc4c(c3)OCCO4)N3CCCC3)ccnc2c1 (stereo not given)
    -1.0, nt, 0.3, nt, nt, 1.0%, nt
CC(=O)N1CCN(C(=O)c2ccc(C)c(S(=O)(=O)N3CCCCC3)c2)CC1
    -0.3, -9.8, 10.8, nt, nt, 1.3%, -2.6
C=CCOC(=O)C1=C[C@H](c2ccc(C(F)(F)F)cc2)[C@@H](CCCO)[C@H](OCC)O1
    -0.2, 4.6, -0.1, -29.4, 9.8%, 5.1%, 0.4
COC1=C(NCc2ccc3c(c2)OCO3)C(=O)C(OC)=C(NCc2ccc3c(c2)OCO3)C1=O
    -2.4, -8.6, -0.7, nt, nt, 8.3%, -1.4
O=C(c1ccc(Cl)c(S(=O)(=O)N2CCCC2)c1)N1CCN(Cc2ccccc2)CC1
    14.3, -1.5, 0.0, nt, nt, 4.8%, 0.0
COc1cccc(CNC(=O)CCCc2nnc3n(C)c(=O)c4sccc4n23)c1
    ?, -7.0, nt, -7.3, 7.8%, 0.4%, -3.7
CSc1ncccc1C(=O)OCC(=O)N1CCc2ccccc21
    1.2, -7.0, 11.9, nt, nt, 1.0%, -0.3
O=c1cc([O-])[n+]2c3n1CCCN3CCC2
    9.9, 5.7, 0.6, -0.3, 10.7%, 4.1%, -4.5
Clc1cc(Cl)c(OCCCCn2cncn2)c(Cl)c1
    18.3, -10.3, nt, 13.7, ?, 0.2%, -2.6
Cc1cc(C)c2c(CN(Cc3ccccc3)Cc3ccccc3)cc(=O)oc2c1
    6.0, -11.2, 4.4, nt, nt, 0.7%, -6.4
